Bioassay records from PubChem.
RE007 growth inh: less growth of the S. pombe RE007 Vpr strain. S. pombe RE007 Vpr strain, BacTiter-Glo ATP luminescence, 24 h; control for the full effect not named in the record. Potency, µM (titrated, usually from 92.2 µM), without a hit: at the highest dose activity change, negative = less growth. 360,000 tested, 0.21% active. AID 651644; active = well fitted falling curve with a large enough effect; inconclusive = small, poorly fitted or top-dose-only effect; inactive = no such curve, though single readings can be large or run the other way;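 also: % is scaled to controls: 0 for no effect and ±100 for the full control effect; nearly all actives have a fitted effect of over 50% in size; the assay follows cell death caused by Vpr and the record does not say whether a fall means rescue or toxicity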
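Fission yeast strain RE007, carrying one chromosomally integrated HIV-1 vpr copy, was seeded at OD 0.01 in PMG+AL medium with 23 nL pinned compound. After 24 h at 30 °C and 99% humidity, viability was read by BacTiter-Glo luminescence.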
NS1 inh: blocks influenza NS1 protein function | AID 2326 | S. cerevisiae slowed by influenza A NS1, growth recovery by OD600 | Potency, µM (series often up to 46.1 µM), inactives show at the highest dose activity, positive = more growth | 270,000 tested, 0.4% active; also: actives are rising curves; nearly all actives have a fitted effect of over 50% in size
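Growth recovery, yeast-based: influenza A NS1 expressed in S. cerevisiae causes slow growth, and suppressors are detected by OD600. The parent strain without NS1 is used as positive control.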
Cruzain noTriton: cruzain (T. cruzi) inhibition without detergent; purified cruzain, Z-FR-AMC fluorescence, no detergent; Potency, µM, for inactives: max response, negative = inhibition, most hits filed as inhibitors; 200,000 tested, 2.3% active; AID 1476; active = well fitted curve in the direction sought with a large enough effect; inconclusive = small, poorly fitted or top-dose-only effect, or another doubt; inactive = no such curve, though single readings can be large; an effect the other way counts as inactive or inconclusive;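 also: plate controls were enzyme without inhibitor for no effect and buffer without enzyme for full effect; nearly all actives have a fitted effect of over 40% in size; top concentration of the series not given in the record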
Target sequence (P25779 123-467 limits assumed): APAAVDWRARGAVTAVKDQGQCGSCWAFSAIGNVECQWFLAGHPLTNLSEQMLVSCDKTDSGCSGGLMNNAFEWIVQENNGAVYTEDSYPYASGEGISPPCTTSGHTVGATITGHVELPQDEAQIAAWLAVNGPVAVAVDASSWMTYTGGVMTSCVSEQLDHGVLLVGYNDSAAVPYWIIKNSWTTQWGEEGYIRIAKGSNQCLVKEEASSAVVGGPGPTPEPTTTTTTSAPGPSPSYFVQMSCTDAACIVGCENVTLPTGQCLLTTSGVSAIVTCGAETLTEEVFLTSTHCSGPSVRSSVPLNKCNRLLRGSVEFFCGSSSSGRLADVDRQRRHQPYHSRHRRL
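Purified cruzain at 1.5 nM, pre-incubated 15 min with compound at room temperature in 100 mM sodium acetate pH 5.5, 5 mM DTT, 0.00005% Triton X-100. Reaction started with 2 uM Z-FR-AMC; AMC fluorescence increase over 60 s gives rate.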
Marburg entry inh: Marburg virus entry inhibition; 300,000 tested, 1.8% active; AID 540276; Marburg virus pseudotyped entry inhibition, cell reporter; control for the full effect not named in the record; about a third of the inactives were read at about 46 µM; Potency, µM (highest dose often 37.8 µM), for the others: top-dose activity change, negative = inhibition, most hits filed as inhibitors; active = well fitted inhibition curve with a large enough effect; inconclusive = small, poorly fitted or top-dose-only effect, or effect the other way; inactive = flat fitted curve, though single readings scatter; tested in HEK293 cells; about a fifth of its hits are not listed in these tables; also: % is scaled to controls: 0 for no effect and ±100 for the full control effect; luciferase read-out
Lassa entry inh: inhibitors of Lassa virus binding or cell entry; Lassa virus pseudotype entry inhibition, cell reporter; control for the full effect not named in the record; Potency, µM (highest dose often 37.9 µM), without a hit: top-dose activity change, negative = inhibition, actives largely listed as inhibitors; 300,000 tested, 1.2% active; active means well fitted inhibition curve with a large enough effect; inconclusive means small, poorly fitted or top-dose-only effect, or effect the other way; inactive means flat fitted curve, though single readings scatter; tested in HEK293 cells; also: % is scaled to controls: 0 for no effect and ±100 for the full control effect; nearly all actives have a fitted effect of over 50% in size; luciferase read-out
StopGo reporter: lowers the luciferase signal of an FMDV 2A StopGo reporter | human cells with a luciferase reporter of 2A StopGo recoding; control for the full effect not named in the record | AID 1159524 | Potency, µM (series often up to 57.9 µM), for the others: at the top dose signal change, negative = less light | 410,000 tested, 1.2% active; active = well fitted falling curve with a large enough effect; inconclusive = small, poorly fitted or top-dose-only effect; inactive = no such curve, though single readings can be large or run the other way; tested in HEK293T cells; also: % is scaled to controls: 0 for no effect and ±100 for the full control effect; nearly all actives have a fitted effect of over 45% in size; luciferase light after 4 h
SARS PLpro yeast: SARS-CoV PLP inhibition in yeast; S. cerevisiae expressing SARS-CoV PLpro, growth rescue; control for the full effect not named in the record; Potency, µM (highest dose often 32.9 µM), for inactives: at the top dose activity, positive = growth rescue; 330,000 tested, 0.19% active; AID 485353; also: 0% is about no effect; nearly all actives have a fitted effect of over 55% in size; growth read by luminescence after 48 h
Cruzain Triton: cruzain (T. cruzi) inhibition with detergent; P25779; purified cruzain, Z-FR-AMC fluorescence, 0.01% Triton; Potency, µM, for the others: max response, negative = inhibition, usual class: inhibitors; 200,000 tested, 0.43% active; active = well fitted curve in the direction sought with a large enough effect; inconclusive = small, poorly fitted or top-dose-only effect, or another doubt; inactive = no such curve, though single readings can be large; an effect the other way counts as inactive or inconclusive;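 also: plate controls were neutral wells for no effect and buffer without enzyme for full effect; nearly all actives have a fitted effect of over 40% in size; top concentration of the series not given in the record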
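Compounds were screened in titration against cruzain (1.5 nM) with 0.01% Triton X-100 to counter colloidal aggregation. Activity was the AMC fluorescence increase over 60 s after adding 2 uM Z-FR-AMC at pH 5.5.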
Numbers without * were called inactive; ? = inconclusive; / = no result given; & = joins results of further samples; [ ] = remark or other dose. Unless noted, calls follow the shape of the dose curve; as a rule, active means well fitted rising curve with a large enough effect; inconclusive means small, poorly fitted or top-dose-only effect; inactive means no such curve, though single readings can be large or run the other way. Potency is read from the fitted curve at half-maximal effect. No enrichment for hits; overall some 4.7% were active at least once.

The line under a structure holds: RE007 growth inh | NS1 inh | Cruzain noTriton | Marburg entry inh | Lassa entry inh | StopGo reporter | SARS PLpro yeast | Cruzain Triton
1) Cc1ccc(-c2nnc(SCC(=O)NC3CCCC3)n2C)cc1
    5% | 1% | / | 11%[46.1 µM] | -14% | -1% | 1% | /
2) CCC1CCC(N2CCN(c3ccc([N+](=O)[O-])cc3)CC2)CC1 (configuration not stated)
    -18% | -15% | / | ? | -21%[46.1 µM] | -14% | 0% | /
3) CCC(=O)Nc1nc2ccc(NC(=O)c3cc(OC)c(OC)c(OC)c3)cc2s1
    -3% | / | / | -28% | -23% | ? | -3% | /
4) CCC(C)n1cnc2c(c1=O)c1nc3ccccc3nc1n2-c1ccc2c(c1)OCCO2 (configuration not stated)
    -9% | -44% | 1% | ? | -11% | -14% | 15% | 6.2%
5) O=C(Nc1cccc2ccccc12)/C(Cl)=C/c1ccccc1
    8% | -6% | -1% | -15% | 1% | 8% | -10% | 0.6%
6) CC(OC(=O)Cn1c(C(F)(F)F)nc2ccccc21)C(N)=O (configuration not stated)
    1% | 4% | -15% | -4% | -17% | -6% | 1% | 2.1%
7) Cc1ccc(OCc2nnc(NC(=O)OCC(C)C)s2)c(C)c1
    / | 2% | ? | -1% | / | / | 2% | 7.7%
8) Cn1c(=O)sc2cc(NS(=O)(=O)c3ccc(C(C)(C)C)cc3)ccc21
    / | / | -17% | / | -1%[46.1 µM] | -10% | / | -3.1%
9) CCCCN1C(=O)C(=O)N(CC(=O)c2ccc3c(c2)OCO3)C1=O
    18% | / | / | 4% | 0% | -1% | 8% | /
10) O=C(Nc1ccc2c(c1)OCO2)C1CCCN1C(=O)Nc1ccccc1F (configuration not stated)
    6% | -12% | -11% | 0%&-10% | 16% | 2% | 1% | 4.2%
11) Cc1cc(C)cc(NC(=O)Nc2cccc(S(N)(=O)=O)c2)c1
    5% | 5% | / | -19%[14.2 µM] | -15% | 9% | 1% | /
12) Cc1ccc(S(=O)(=O)N2CCN(C(=O)N(C)C)CC2)cc1
    -18% | -3% | / | / | / | -13% | -1% | /
13) COc1cccc(/C=C2/Oc3ccccc3N(CC(=O)NCC3CCCO3)C2=O)c1 (configuration not stated)
    -8% | 0% | / | 8%[46.1 µM] | ? | -10% | 6% | /
14) CC(C)c1ccc(NC(=O)CCCC(=O)NCCc2ccccc2)cc1
    -9% | -1% | / | / | / | 17% | 1% | /
15) COc1ccc(/C=C(/NC(=O)c2ccc(C)cc2)C(=O)N2CCCC2)cc1OC
    -16% | -4% | / | ? | -11%[46.1 µM] | -3% | -1% | /
16) CC(C)(C)NC(=O)c1ccc2nccnc2c1
    18% | 0% | 2% | 7% | -9% | 15% | 0% | -1.9%
17) Cc1ccc(C)c(NC(=O)COC(=O)CCCN=C2NS(=O)(=O)c3ccccc32)c1
    22% | 1% | -13% | ? | -10% | -9% | 0% | -0.9%
18) O=C(c1cccc(Oc2c(Cl)cccc2[N+](=O)[O-])c1)N1CCCCC1
    3% | -6% | / | ? | ? | 1% | -1% | /
19) CCN(CC)CCCn1c2c(c(SCC(=O)Nc3cccc4ccccc34)nc1=O)CCC2
    -15% | / | / | ? | -1% | -13% | -5% | /
20) Cc1onc(-c2ccccc2)c1-c1ccc(S(N)(=O)=O)cc1
    24% | / | -14% | / | / | -25%&-10% | 4% | -4.0%
21) O=S(=O)(Cc1nnnn1-c1ccccc1)c1ccccc1
    -5% | 8% | / | / | / | 12% | -8% | /
22) O=C(O)CCn1c(CO)nc2ccccc21
    -4% | -3% | / | -3%[46.1 µM] | 26%[46.1 µM] | -14% | 0% | /
23) COc1ccc(OC)c(NC(=O)c2sc3ncnc(N4CCN(c5ccccn5)CC4)c3c2C)c1
    -6% | 0% | / | 10%[46.1 µM] | -3% | ? | 3% | /
24) COc1ccc(C(=O)NC(=S)N2CCN(C)CC2)cc1Br
    0% | 2% | / | / | / | -5% | 12% | /
25) O=C(NC(=S)Nc1ccc(S(=O)(=O)N2CCCCC2)cc1)c1ccc(Cl)cc1
    -24% | -6% | 1% | 11% | 4% | -17% | 1% | 4.2%
26) CCOC(=O)c1c(C)[nH]c(C)c1S(=O)(=O)NCC(=O)N1CCN(c2ccccc2F)CC1
    / | / | -7% | / | -13%[46.1 µM] | -3% | / | 1.0%
27) COc1ccc(OCCN2C(=O)c3cccc(N)c3C2=O)cc1
    12% | 11% | / | -19%[46.1 µM] | 12% | 73%[activator] | -3% | /
28) COCC(C)n1c(C)cc(C(=O)CN2C(=O)NC(Cc3c[nH]c4ccccc34)C2=O)c1C (configuration not stated)
    -2% | 3% | ? | 7% | -13% | -14% | 6% | 0.6%
29) CCOC(=O)c1c(NC(=O)COC(=O)Cc2n[nH]c(=O)c3ccccc23)sc(C(=O)N(C)C)c1C
    -6% | / | / | 2% | 9% | -10% | -3% | /
30) CCCCC1=CC2=CC(=O)C(C)(OC(=O)CC)C(=O)C2=CO1 (configuration not stated)
    8% | / | -11% | / | / | 1% | / | -0.4%
31) COc1ccc(Cl)cc1Nc1nc(-c2sc(NC(=O)c3ccccc3)nc2C)cs1
    / | 20% | 6.3µM* | / | / | / | -1% | 1.7%
32) CCOc1ccc(-c2nc(SCC(=O)Nc3ccc(C)c(C)c3)n3[nH]c(=O)cc3n2)cc1
    / | / | 6% | / | 20%[46.1 µM] | 7% | / | 2.0%
33) COc1ccc(NC(=O)NNC(=O)CCC(=O)Nc2ccccc2Cl)cc1
    5% | 5% | / | 14% | 16% | -4% | -1% | /
34) CC(=O)Nc1ccc(-c2csc(Nc3ccc(S(N)(=O)=O)cc3)n2)cc1
    18% | / | / | -14%[46.1 µM] | -6% | -5% | -1% | /
35) C[C@]12c3[nH]c4cc(-c5ccco5)ccc4c3CCN1C(=O)[C@@H](CC(=O)NCCC1=CCCCC1)C[C@@H]2C(=O)N1CCCCC1
    5% | / | / | 0% | / | -21% | -9% | /
36) Cc1ccc(NC(=O)Cn2c(=O)n(CCC(=O)NCc3ccc4c(c3)OCO4)c(=O)c3sccc32)c(C)c1
    / | / | 0% | 5%[46.1 µM] | 26%[46.1 µM] | -1% | / | -2.6%
37) NS(=O)(=O)c1ccc(CNc2nc(-c3cccnc3)nc3ccccc23)cc1
    0% | ? | / | -29%[46.1 µM] | 3%[46.1 µM] | 7% | 1% | /
38) Cc1cccc(CSC2=NCCN2S(=O)(=O)c2ccc(F)cc2)c1
    -8% | -31% | / | ? | ? | ? | -9% | /
39) CCOC(=O)c1ccc2[nH]c3c(c2c1)CCCC3
    -7% | -32% | / | / | / | 66%[activator] | -7% | /
40) COc1cc(/C=N/c2oc(-c3ccccc3)cc2C#N)ccc1O
    -27% | -11% | ? | 3% | 11% | 13% | -8% | -9.4%
41) CCN(CC)c1nc(OCCNC(=O)Nc2ccccc2)nc(N(CC)CC)n1
    15% | -45% | 15% | ? | ? | 0% | -18% | -3.2%
42) CN(c1ccccc1)c1nc(N)c([N+](=O)[O-])c(NCCO)n1
    2% | -1% | / | / | / | 61%[activator] | -1% | /
43) CCOC(=O)C1CCN(/C=C2/C(=O)NC(=S)N(c3ccccc3F)C2=O)CC1
    8% | 2% | / | / | / | 1% | 1% | /
44) COc1cc(/C=C/C(=O)O)ccc1S(=O)(=O)N1CCCc2ccccc21
    13% | / | / | -23%[46.1 µM] | 15%[46.1 µM] | 6% | 1% | /
45) CNc1nc(NCc2ccccc2)c2ccccc2n1
    -9% | -22% | / | 4µM* | ? | -18% | -6% | /
46) COc1ccc(CNC(=O)Cn2nnc(-c3ccccc3F)n2)cc1
    / | / | -5% | -2%[46.1 µM] | 2%[46.1 µM] | 4% | / | 0.0%
47) COc1ccc(C(=O)N/C(=C\c2cn(C)c3ccccc23)C(=O)N2CCOCC2)cc1
    8% | 6% | / | 1%[46.1 µM] | ? | 14% | -1% | /
48) FC(F)(F)c1cccc(Nc2ncnc3ccccc23)c1
    ? | -97% | 10% | -5% | 1% | ? | -28% | -5.4%
49) CCC1(CC)NC(=O)N(CC(=O)OCn2nnc3ccccc3c2=O)C1=O
    -8% | 7.1µM* | 3% | 20% | 14% | 26% | 7% | -2.1%
50) COc1ccccc1C(=O)Nc1nc2nc(C)cc(=O)n2[nH]1
    / | / | 1% | 11%[46.1 µM] | -5%[46.1 µM] | 37%[activator] | / | 4.5%
51) CN(C)c1oc(-c2ccc(COc3ccccc3)o2)nc1C#N
    / | / | ? | 13%[46.1 µM] | -7%[46.1 µM] | -4% | / | -1.0%
52) Cc1cc(NS(=O)(=O)c2ccc(NC(=O)COc3ccccc3Br)cc2)no1
    / | / | -16% | 1%[46.1 µM] | 4%[46.1 µM] | 6% | / | -19%
53) CC(=O)NC(CC(=O)NCCc1ccccc1)c1ccccc1 (configuration not stated)
    -5% | 5% | / | / | / | 0% | -3% | /
54) CCCCCCNCCn1cnc2c(N)ncnc21
    9% | 4% | -3% | 23% | -9% | 12% | 1% | -1.5%
55) Cc1c(OCC(=O)NCc2cccnc2)ccc2c3c(c(=O)oc12)CCC3
    1% | 28% | / | / | / | 9% | 18% | /
56) COc1ccccc1CN1C(=O)CNC1=S
    -5% | 0% | / | / | / | 0% | 4% | /
57) Cc1ccccc1NC1=CC(=O)CC(C)(C)C1
    -7% | -2% | -13% | -2% | -2% | 7% | -13% | -1.8%
58) CCCCCC(=O)N1CCN(c2ccc(C(C)=O)cc2F)CC1
    5% | -12% | -9% | 8% | -7% | -28% | -25% | -3.0%
59) COc1cccc(N2CCN(C(=O)c3cccn3-c3nnc(N4CCCC4)s3)CC2)c1
    / | / | -7% | / | 10%[46.1 µM] | -3% | / | 2.1%
60) CCOc1ccc2nc(NC(=O)CSc3nc4ccccc4c(=O)n3Cc3ccco3)sc2c1
    23% | 4% | 7.9µM* | ? | -18% | -7% | 2% | 1.7%
61) COCCNc1oc(-c2ccc(Cl)cc2)nc1C#N
    7% | -7% | -3% | ? | 9% | 0% | 4% | -22%
